Screening data deposited in PubChem BioAssay by National Center for Advancing Translational Sciences (NCATS).
Rango dissoc inh = inhibitors of RanGTP-induced Rango-importin beta complex dissociation | Potency, µM (top dose mostly 46.1 µM), for the others: top-dose activity change, negative = inhibition | hit rate 0.071% among 340,000 | Biochemical FRET Rango-importin beta, RanGTP-induced dissociation | AID 540253 | O95149+P62826; active means falling FRET ratio curve, often poorly fitted, with flat reads before Ran was added; inconclusive means other falling curves, or compound fluorescence or quenching; inactive means flat or rising ratio curve;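 also: potency is read from the fitted curve at half-maximal effect; % of control where 0% means no effect; nearly all actives have a fitted effect of over 45% in size; -100% = wells without RanGTP and RCC1; the record marks most hits as doubtful in a second field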
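Rango FRET biosensor (snurportin-1 IBB flanked by N-terminal EYFP and C-terminal CFP10) at 0.1 uM, with 0.25 uM importin beta in PBS, 1mM DTT, 0.02% Tween-20, 0.1% BSA. 0.6 uM Ran, 2mM GTP and 0.2 uM RCC1 were then added for 45 min at room temperature. Inhibition read as loss of FRET rise.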
Rango-impB inh = prevents formation of the Rango-importin beta complex. Rango CFP/YFP FRET sensor + importin beta, 45 min. Potency, µM (top dose mostly 92.2 µM), for the others: top-dose inhibition of complex formation. hit rate 0.031% among 340,000. AID 540263; active = rising FRET ratio curve, often small or poorly fitted; inconclusive = mostly compound fluorescence or quenching in the first reads; inactive = flat curves in all reads;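 also: potency is read from the fitted curve at half-maximal effect; 0% = DMSO wells and 100% = buffer wells lacking importin beta; nearly all actives have a fitted effect of over 15% in size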
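FRET biosensor (snurportin 1 IBB flanked by EYFP and cerulean), 50 nM, with compound 5 min, then 0.125 microM importin beta in PBS, 1 mM DTT, 0.02% Tween-20, 0.1% BSA. CFP/YFP ratio read after 45 min at room temperature; pre-read flags interference.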
GLA inh pH 4.5 = inhibitors of human alpha-galactosidase A at pH 4.5; AID 1467; activity change, negative = inhibition, % at 105 µM; P06280; 230,000 tested, under 10 active; purified enzyme, 4-MU-alpha-Gal fluorescence, pH 4.5; inconclusive = small, poorly fitted or top-dose-only inhibition, or a rising curve; inactive = flat fitted curve, though single readings scatter; no compound was filed as active;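 also: 0% = full activity with enzyme and -100% = basal without enzyme; dose as in the result columns while the protocol names 77 µM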
Target sequence (P06280 whole entry, looked up): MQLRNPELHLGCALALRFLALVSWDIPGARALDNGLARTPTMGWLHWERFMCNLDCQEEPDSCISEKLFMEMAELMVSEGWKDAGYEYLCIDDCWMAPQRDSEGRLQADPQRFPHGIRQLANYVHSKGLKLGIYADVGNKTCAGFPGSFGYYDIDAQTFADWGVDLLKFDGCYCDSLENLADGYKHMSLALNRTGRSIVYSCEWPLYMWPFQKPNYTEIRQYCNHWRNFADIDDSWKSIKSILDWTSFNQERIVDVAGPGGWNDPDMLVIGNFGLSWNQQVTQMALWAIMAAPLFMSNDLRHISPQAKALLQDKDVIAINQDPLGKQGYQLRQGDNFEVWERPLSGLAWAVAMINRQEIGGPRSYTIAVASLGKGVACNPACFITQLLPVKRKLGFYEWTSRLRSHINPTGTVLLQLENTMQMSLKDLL
miR-21 FLuc = miR-21 reporter, rising signal. Potency, µM (doses to about 38.3 µM), for the others: top-dose reporter change, positive = more light. AID 2288. HeLa miR-21 FLuc reporter, luciferase, 48 h. 340,000 tested, under 10 active; active = well fitted rising curve with a large enough effect; inconclusive = small, poorly fitted or top-dose-only effect; inactive = no such curve, though single readings can be large or run the other way;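 also: % of control where 0% means no effect; miR-21 action dims this reporter so a rising signal means less miR-21 action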
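HeLa miR-21-FLuc reporter line, endogenous miR-21; 2000 cells/well in DMEM/10% FBS; compound titration up to ~40uM final, 48 h, 37 degree Celsius; luciferase detection reagent, 15 min lysis, CCD luminescence.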
The depositor's hits bear a star; ? = inconclusive; . = no result given; & = joins results of further samples; [ ] = another dose, or the depositor's remark. The list is partial. The share of hits here may be higher or lower than overall.

SMILES | Rango dissoc inh | Rango-impB inh | GLA inh pH 4.5 | miR-21 FLuc
COc1ccc(C(=O)NC2CCCCCC2)cc1S(=O)(=O)Nc1ccc(Br)cc1 | 5.7% | -1.5% | 4.8 | -20.4%
COc1ccc(C(=O)Nc2cc3c(cc2C#N)OCO3)cc1S(=O)(=O)N1CCN(C)CC1 | -0.3% | 0.4% | 9.8 | -6.4%
CC1=CC(C)(C)C(C(=O)O)C(C(=O)O)C1 (configuration not stated) | -7.5% | 3.5% | 10.7 | -0.1%
CC(C)[C@H](NC(=O)c1ccccc1)C(=O)OCC(=O)N1CCCc2ccccc21 | 14.0% | 0.2% | 2.9 | -4.4%
Cc1cc(C(=O)NCCCn2ccnc2)sc1-c1ccccc1 | 23.9% | 0.5% | 4.1 | -15.4%
CC(=O)NCCc1ccc(S(=O)(=O)Nc2ccc(NC(=O)c3ccc(F)cc3)cc2)cc1 | -10.6% | -9.5% | . | -17.9%
Cc1ccc(CNC(=O)N[C@@H](Cc2ccccc2)C(=O)O)cc1 | -7.3% | 4.5% | 6.4 | -0.9%
COc1cc(OC)c(C(=O)Nc2cc(Cl)ccc2-n2cncn2)cc1OC | -15.5% | -3.2% | . | .
O=C(COC(=O)c1ccc(Br)o1)Nc1nc2c(F)c(F)c(F)cc2s1 | -4.0% | ? | -16.4 | -9.0%
Cc1ccc(CN2CC(C(=O)NC(c3nc4ccccc4[nH]3)C(C)C)CC2=O)cc1 (configuration not stated) | 12.6% | ? | . | .
Nc1c(-c2ccccc2)nc(Cl)nc1-c1ccccc1 | -9.6% | -3.6% | 5.7 | -6.0%
Fc1cccc(-c2oncc2-c2nnnn2-c2ccc(Cl)cc2)c1 | 10.2% | -1.2% | 7.1 | 2.4%
Cc1onc(-c2c(Cl)cccc2Cl)c1C(=O)N1CCCCC1 | -0.2% | -0.1% | . | 4.8%
O=C(O)c1ccc(NCc2cccnc2)c([N+](=O)[O-])c1 | -4.6% | -0.8% | . | 0.7%
Cc1ccc(OCCSc2nnc(-c3ccncc3)n2C)cc1 | -4.5% | 0.0% | 3.2 | -2.0%
CCOC(=O)Cc1csc(NC(=O)Cc2ccc(Br)cc2)n1 | 0.7% | -0.3% | -0.2 | 12.7%
Cc1nnnn1CC(=O)Nc1cccc([N+](=O)[O-])c1 | -0.2% | -0.5% | 10.1 | -1.4%
CCc1cc2c3c(c(=O)oc2cc1OCC(=O)OC)CCCC3 | -2.6% | -1.5% | . | -4.5%
CC1(C)CC(=O)C=C(NCc2cccc(C(F)(F)F)c2)C1 | 5.6% | -2.1% | -4.2 | -5.0%
CC1=NN(c2ccc(C)cc2)C(=O)/C1=C\c1ccc(Br)s1 | -12.7% | 0.8% | 5.8 | -2.7%
COc1cccc(Nc2nc3ccccc3n3nnnc23)c1 | 7.1% | -5.0% | 7.4 | -38.3%
C/C(=N\Nc1cc(Cl)nc(C)n1)c1ccccc1 | 6.3% | 2.3% | 0.6 | -50.0%
CN1/C(=C/C(=O)COC(=O)CN2C(=O)C3CC=CCC3C2=O)C(C)(C)c2ccccc21 (configuration not stated) | -1.2% | 1.6% | . | .
CCC(=O)Nc1c2c(nn1-c1ccc(OC)cc1)CSC2 | 10.9% | 3.6% | . | -0.2%
COC(=O)c1cn(C)c2ccc(S(=O)(=O)N3CCCC3)cc2c1=O | -0.7% | -1.4% | -7.7 | 22.1%
CCN1CCN(C(=O)CN(CC)S(=O)(=O)c2ccc3ccccc3c2)CC1 | -2.8% | 0.3% | . | -11.0%
O=S(=O)(c1cccs1)N1CCN(CCOc2ccc(Cl)cc2)CC1 | -2.5% | 1.1% | . | .
CC(=O)N1CCOCCOCCN(C(C)=O)CCOCCOCC1 | -12.9% | -1.5% | 2.9 | -0.3%
Cn1c(=O)[nH]c(=O)c2cc(C(=O)c3cc(F)ccc3O)cnc21 | -3.1% | -3.2% | 0.9 | 5.2%
Cn1c(CC(=O)Nc2ccc(F)cc2)nnc1SCC(=O)Nc1nncs1 | -7.9% | -1.1% | . | 1.3%

Three entries from above, with two lines to a compound:
Every second line gives: Rango dissoc inh	Rango-impB inh	GLA inh pH 4.5	miR-21 FLuc
> CCN1CCN(C(=O)CN(CC)S(=O)(=O)c2ccc3ccccc3c2)CC1
  -2.8%	0.3%	.	-11.0%
> O=S(=O)(c1cccs1)N1CCN(CCOc2ccc(Cl)cc2)CC1
  -2.5%	1.1%	.	.
> CC(=O)N1CCOCCOCCN(C(C)=O)CCOCCOCC1
  -12.9%	-1.5%	2.9	-0.3%

(list continues)
SMILES | Rango dissoc inh | Rango-impB inh | GLA inh pH 4.5 | miR-21 FLuc
O=C(Nc1nnc(CSCc2ccc(F)cc2)s1)c1ccc([N+](=O)[O-])cc1 | 1.6% | -0.1% | -7.0 | -1.8%
Cc1cc(SCC(=O)NC2CCCC2)nc2ccccc12 | -1.9% | 0.8% | . | -5.6%
O=C(N/N=C/C1C(c2ccccc2)C1(Cl)Cl)c1cccc(Cl)c1 (configuration not stated) | 5.5% | ? | -8.0 | -20.7%
CN(C)c1ncc(C(=O)O)cn1 | 12.7% | 2.1% | 3.2 | -5.1%
O=C(N/N=C/c1cccc2ccccc12)c1cccnc1 | 1.3% | 1.6% | . | -13.9%
CCC(C)C(=O)Nc1cccc(SC)c1 (configuration not stated) | . | . | 7.2 | -33.0%
CCN1CCN(c2ccc(NC(=O)c3ccc(Cl)c(N4CCCC4=O)c3)cc2)CC1 | -0.9% | -1.8% | . | -13.3%
COc1ccc(/C=C(/NC(=O)c2ccc(OC)cc2)C(=O)NCCc2c[nH]c3ccccc23)cc1 | -18.5% | 7.7% | -9.8 | 5.3%
Cc1ccc(-c2nc(NC(=O)c3cc(C(C)(C)C)nn3C)sc2C)cc1Cl | -0.2% | 0.7% | -9.9 | 2.0%
CC(/C=C/C=C/c1ccccc1)=N/NC(=O)C(O)c1ccccc1 (configuration not stated) | -4.5% | -1.1% | -4.2 | -10.8%
O=C(CN(C(=O)c1csnn1)c1cccc(Cl)c1)NC1CCCCC1 | 4.5% | -3.3% | . | 1.0%
COC(=O)c1nn(-c2ccccc2)c(Sc2ccc(C)cc2)c1/C=N/O | -1.4% | 2.0% | 2.9 | -0.8%
CS(=O)(=O)N(CC(=O)N1CCCC1)c1cc(C(F)(F)F)ccc1Cl | -15.0% | 1.1% | 1.7 | 3.5%
CCOc1ncccc1C(=O)OCC(=O)N(CC(C)C)c1c(N)n(Cc2ccccc2)c(=O)[nH]c1=O | -3.1% | 1.0% | . | .
COC(=O)c1ccc(NC(=O)CCN2C(=O)C3C4CCC(C4)C3C2=O)cc1 (configuration not stated) | 0.4% | 2.2% | . | -0.8%
OC(C#CCN1CCCC1)(c1ccccc1)c1cccnc1 (configuration not stated) | -2.2% | -4.2% | -9.2 | -1.2%
COc1cc2ncc(C(=O)c3ccccc3)c(N3CCN(Cc4ccccc4)CC3)c2cc1OC | 0.3% | 0.1% | -15.5 | 14.7%
CC1(C)C2CCC1(CS(=O)(=O)N1CCCc3ccccc31)C(=O)C2 (configuration not stated) | -3.2% | 2.9% | 0.3 | -4.2%
O=C(CC1C(=O)NCCN1CC1CCCCC1)NCc1ccc(F)cc1 (configuration not stated) | 14.7% | 0.4% | 5.4 | -2.7%
O=C(C1CCN(Cc2ccc(F)cc2)CC1)N(CCc1ccccc1)Cc1ccccc1 | 0.1% | -0.1% | -14.9 | 22.3%
CCc1sc(NC(=O)CN2CCOCC2)nc1-c1ccccc1 | -10.6% | 3.6% | -3.4 | 0.2%
COC(=O)c1sccc1NC(=O)c1ccc(OC)c([N+](=O)[O-])c1 | -10.6% | 1.1% | 8.4 | -2.1%
CC(C)(C)C1CCC(N2CCN(c3ccccc3)CC2)CC1 (configuration not stated) | 18.0% | -1.5% | . | 6.6%
CC(=O)N[C@@H](C)C(=O)N1CCN(S(=O)(=O)c2ccc(Cl)cc2)CC1 | 1.6% | -1.7% | 2.1 | -1.2%
Nc1nnnn1CC(=O)N/N=C/c1cc([N+](=O)[O-])ccc1Cl | -1.8% | 0.1% | -11.8 | -1.3%
COc1ccc(S(=O)(=O)N2CCOC23CCN(S(=O)(=O)c2ccccc2)CC3)cc1 | -9.5% | 6.2% | . | .
NC(=O)C1CCN(C(=O)c2cc(S(=O)(=O)N3CCOCC3)c(Cl)cc2Cl)CC1 | 4.6% | 3.7% | -4.1 | -9.7%
O=C(O)CC/C(=N\NC(=O)c1ccc(F)cc1)c1ccc(Br)cc1 | 16.3% | 0.5% | 1.7 | -32.8%
Cc1ccc(CC2CC(=O)N(CC(=O)O)C2=O)cc1 (configuration not stated) | -1.7% | -0.9% | -24.4 | 1.7%
CCCC(=O)c1ccc(N2CCOCC2)c(F)c1 | -4.7% | -0.5% | -7.1 | -32.6%

Three entries from above, ordered by the number in miR-21 FLuc, rising:
compound,Rango dissoc inh,Rango-impB inh,GLA inh pH 4.5,miR-21 FLuc
COc1ccc(C(=O)NC2CCCCCC2)cc1S(=O)(=O)Nc1ccc(Br)cc1,5.7%,-1.5%,4.8,-20.4%
O=C(COC(=O)c1ccc(Br)o1)Nc1nc2c(F)c(F)c(F)cc2s1,-4.0%,?,-16.4,-9.0%
COC(=O)c1sccc1NC(=O)c1ccc(OC)c([N+](=O)[O-])c1,-10.6%,1.1%,8.4,-2.1%

Additional entries:
SMILES | Rango dissoc inh | Rango-impB inh | GLA inh pH 4.5 | miR-21 FLuc
COc1ccc(OC)c(N/C=C/C(=O)c2ccc(OC)c(OC)c2)c1 | ? | ? | . | -22.9%
CCn1c(SCC(=O)Nc2ccc(N3CCOCC3)c(Cl)c2)nnc1-c1ccc(N)cc1 | -6.1% | -0.2% | -7.6 | -3.1%
O=C(NCCNC(=O)c1ccc([N+](=O)[O-])cc1)c1ccncc1 | 1.1% | 2.4% | 1.5 | 2.6%
O=C(NC1CC2CCCC(C1)N2C(=S)NCCc1ccccc1)C1CC1 (configuration not stated) | 1.2% | 0.1% | 4.2 | 0.4%
Cc1ccccc1NC(=O)Cc1nc(COC(=O)COc2ccccc2C(C)C)cs1 | -10.7% | 0.3% | . | .
CC(C)(C)c1cc(NC(=O)Nc2ccc(Br)cc2Cl)no1 | 0.3% | -0.1% | -3.2 | -19.4%
Cc1ccc(C(=O)Nc2ncccc2S(=O)(=O)c2ccccc2)cc1 | 34.1% | -3.7% | . | -22.9%
Cc1nn(-c2ccccc2)c(Cl)c1C(=O)N(C)c1nc(-c2ccc(F)cc2)cs1 | . | . | 9.4 | -5.0%
CC(=O)C1CCC2C3CC=C4N(C)C(=O)CCC4(C)C3CCC12C (configuration not stated) | -0.7% | 2.6% | . | .
COc1cccc(-c2n[nH]c(=S)n2Cc2ccco2)c1 | 2.1% | 0.1% | -6.3 | -0.8%
CC1=CC(=C(C#N)C#N)C=C(C)N1Cc1ccccc1 | -1.9% | -2.6% | -0.9 | 3.1%
CCn1c(=O)c(C(=O)Nc2ccccc2)c(O)c2ccccc21 | 1.2% | -3.7% | . | -12.6%
Cc1cn(C(C)C)c(=O)n(-c2ccccc2)c1=O | -2.4% | -1.0% | . | .
CCOC(=O)c1c(C)[nH]c(C)c1C=O | -19.3% | -0.6% | -6.7[21.1 µM] | -10.6%
c1ccc2c(OCCCCN3CCCC3)cccc2c1 | 15.9% | 0.2% | . | -3.6%
CCOC(=O)c1cccc(NC(=O)CCc2ccccc2)c1 | 4.5% | 3.7% | -1.3 | -23.7%
CCN(Cc1ccccc1)C(=O)CSc1ncn[nH]1 | 16.9% | -4.4% | . | 5.0%
Clc1ccc(CSc2nncn2-c2ccc3c(c2)OCCO3)cc1 | -0.8% | -1.6% | 8.5 | ?
Nc1c(S(=O)(=O)c2ccccc2)nnn1-c1ccccc1 | -16.3% | ? | -10.4 | -6.7%
CC(O)(CS(=O)(=O)Cc1ccc(Cl)cc1)C(=O)Nc1cccc(C(F)(F)F)c1 (configuration not stated) | 21.9% | -3.9% | -3.2 | 2.8%
Cc1cc(N2CCOCC2)nc(SCc2c(Cl)cccc2Cl)n1 | -11.3% | 4.1% | 1.6 | -22.5%
Cc1ccc(S(=O)(=O)N2CCC(=O)N(C(COC(=O)Nc3ccccc3)Cc3ccccc3)CC2)cc1 (configuration not stated) | -1.7% | 0.1% | -13.1&-21.1 | -3.7%
